# VACV E9 pol inh = vaccinia E9 polymerase processive synthesis inhibitors, primary screen, biochemical, absorbance | Vaccinia virus DNA polymerase (E9) processive complex | in vitro processive DNA synthesis, absorbance read-out; stronger effect = lower value; some inactives read as strong as hits | normalized absorbance, % (test concentration not listed) | 46,000 tested, 0.94% active;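 active means replicate mean up to 90% and picked by the depositor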;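 further: 100% = median of the test wells of a plate; 100 nL library stock went into each well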
# The depositor's hits bear a star. Some of the compounds tested. The share of hits here may be higher or lower than overall.
mol | VACV E9 pol inh
Cc1ccn2c(C(=O)O)c(C)nc2c1 | 108.7
CCOC(=O)c1ccc(NC(=O)c2ccc(Cl)cc2)cc1 | 99.2
Cc1nnc(SCC(=O)Nc2nsc(-c3ccccc3)n2)s1 | 96.3
CNC(=O)Nc1ccc(C(=O)NC)cc1 | 100.7
CC12CCC(C(=O)Nc3nccs3)(OC1=O)C2(C)C (stereo not given) | 101.3
O=C(COC(=O)C1CCCCC1)c1ccc(Cl)s1 | 98.9
Cc1ccc(S(=O)(=O)N2CC=C(C(=O)NCc3cccs3)CC2)cc1 | 97.4
Cc1cc(SCc2ccc(F)cc2)c(C)cc1Cl | 101.3
CC1CC(C)CN(S(=O)(=O)N2CCCC(C(=O)NCCN3CCOCC3)C2)C1 (stereo not given) | 106.7
CCOC(=O)c1c(C2CCN(C(=O)OCC)CC2)nc2ccccn12 | 93.8
Cc1cccc(NC(=O)c2ccc(S(=O)(=O)N(C)c3ccccc3)cc2)n1 | 102.1
Cn1c(C(F)(F)F)nc2ccccc21 | 90.1
O=C(NCCN1CCCC1)Nc1ccccc1C(F)(F)F | 87.4
CN(C(=O)C1=COCCO1)c1ccccc1 | 99.5
O=C(NC(NCC12CC3CC(CC(C3)C1)C2)(C(F)(F)F)C(F)(F)F)c1ccccc1 | 99.4
CCSC1=NCCN1S(=O)(=O)c1ccc(NC(C)=O)cc1 | 110.9
NNc1nc(-c2ccco2)cc(C(F)(F)F)n1 | 99.8
CC(C)C(=O)N(c1ccccc1)C1C=CS(=O)(=O)C1 (stereo not given) | 99.7
CCOc1ccc(NC2=CC(=O)CCC2)cc1 | 100.2
Cc1ccc(C)c(Cc2cc(Cl)ccc2Cl)c1 | 104.1
CC1CCc2nc(SC3CC(=O)C4OCC3O4)nc(C(F)(F)F)c2C1 (stereo not given) | 99.7
COC(=O)c1ccc(C2c3c(oc4ccc(F)cc4c3=O)C(=O)N2CCCN(C)C)cc1 (stereo not given) | 105.0
Cc1cccc(C(C)C)c1NC(=O)CSc1ncnc2ccccc12 | 102.5
CNC(=O)Nc1ccc(C2SCCS2)cc1 | 105.5
COc1ccc(S(=O)(=O)NCCN2CCOCC2)cc1-c1nnc2c3ccccc3c(C)nn12 | 102.8
CC(C)N(C(=O)Cn1ccc(=N)c2ccccc21)C(C)C | 100.3
Cc1csc2c(NC(C)C)ncnc12 | 96.4
COc1ccc(Cl)cc1C(=O)Nc1ccc(F)cc1F | 91.2
Cc1ccccc1-c1c(C)oc2c(CN(C)C)c(O)ccc2c1=O | 90.6
COC(=O)CSc1nnc(-c2ccncc2)n1-c1ccc(OC)cc1 | 103.1
O=C(CN1CCOCC1)Nc1ccccc1Oc1ccccc1 | 103.7
O=C1c2ccccc2C(=O)N1CCN1CCCCC1 | 100.0
CCOc1ccc(NC(=O)CN2C(=O)C3(OCCCO3)c3ccccc32)cc1 | 95.7
O=C(O)CSCC(=O)N1CCCN(c2ccc(C(F)(F)F)cn2)CC1 | 98.0
Nc1nc2ncc(CNc3ccc(C(=O)N[C@@H](CCC(=O)O)C(=O)O)cc3)nc2c(=O)[nH]1 | 100.4
COc1ccc(OCC(=O)NC(C)(C)C)cc1 | 99.5
CCN(CC)S(=O)(=O)c1cc(-c2nn(C)c(=O)c3ccccc23)ccc1C | 99.9
COc1ccc(C(=O)N2CCN(S(=O)(=O)c3cc(Cl)ccc3OC)CC2)cc1 | 101.8
CCOc1ccccc1C1CC(=O)Nc2c1c(=O)n(C)c(=O)n2C (stereo not given) | 99.3
O=C(c1ccco1)N1CCN(c2ncnc3sc4c(c23)CCCC4)CC1 | 99.4
Cc1ccc(Cn2c(/N=C/c3ccc(Br)cc3)nc3ccccc32)cc1 | 100.0
CCCc1ccc(NC(=S)OCC)cc1 | 96.6
O=C1CC(C(=O)NC2CCCCC2)C2(CCCCC2)O1 (stereo not given) | 100.2
COC(=O)Nc1cn(Cc2cccnc2)c(=O)c2ccccc12 | 116.3
O=C(NCCC1=CCCCC1)c1cc2c(s1)-c1ccccc1SC2 | 94.0
CC1=CCC(C(=O)O)C(C(=O)Nc2nc3ccc(S(C)(=O)=O)cc3s2)C1 (stereo not given) | 82.0
Cc1cc(C(C)(C)C)cc(C)c1COC(=O)C1CCC(=O)N1 (stereo not given) | 84.3
COC(=O)C1=C(C)N=C2SC(C#N)=C(N)N2C1c1cccs1 (stereo not given) | 96.3
CCOC(=O)C(CC)Sc1nnc(-c2c[nH]c3ccccc23)n1C (stereo not given) | 91.8
O=C1C=CC(=O)N1c1ccc(F)c(Cl)c1 | 92.5
CC1CCc2nc(NN)nc(C(F)(F)F)c2C1 (stereo not given) | 100.1
CCOc1ccc(C2=NC(c3ccc(OC)cc3)NC(c3ccccc3O)C2)cc1 (stereo not given) | 93.8
CCc1ccc(-c2csc(NC(=O)c3cccs3)n2)cc1 | 109.6
Cc1cccc(NC(=O)C(CC(C)C)NC(=O)C2CCC(C)CC2)n1 (stereo not given) | 97.5
CCOc1ccc(-c2nc(C#N)c(N(C)C)o2)cc1 | 100.2
C=CCn1cnc2scc(-c3ccc(C)cc3)c2c1=O | 100.5
COc1ccc(N=C2N=C(N)c3ccccc32)cc1 | 87.1
CN(C)CCNC(=O)c1cn(-c2ccccc2)nc1-c1cccnc1 | 86.9
CC(Oc1ccccc1)C(=O)Nc1ccc(Cl)cc1 (stereo not given) | 86.4
COc1cc2c(cc1NC(=O)CCC1CCCCC1)oc1ccccc12 | 99.9

# Remaining list, next part
mol | VACV E9 pol inh
CCOc1ccc2nc(NC(=O)Nc3ccc(F)cc3)sc2c1 | 100.2
Cn1c(=O)c2cnc(-c3ccccc3)nc2n(C)c1=O | 102.2
CCN(C(=O)Cn1c(-c2ccco2)nc2ccccc21)c1ccccc1 | 83.6
CC(=O)N1CN(Cc2ccccc2)Cc2c1sc1c2CCCC1 | 100.1
CCCCCCCCCCCCCCCCCCc1ccc(C(=O)/C=C/C(=O)O)cc1 | 100.6
O=C(CSC1=NCCN1)N1CCc2ccccc21 | 98.2
N#Cc1c(-c2cccs2)cc(-c2ccccc2)nc1OCC(=O)c1ccccc1 | 99.6
O=S(=O)(c1cccc2cccnc12)N(CCc1ccccc1)Cc1ccccc1 | 100.3
O=C1C(c2c(O)n(-c3cc(Cl)cc(Cl)c3)[nH]c2=O)=Nc2ccccc21 | 100.1
O=C(CCN1C(=O)c2ccccc2C1=O)Nc1ccc(S(=O)(=O)Nc2nccs2)cc1 | 100.2
O=C(O)c1ccc(CSc2nc3ccccc3s2)cc1 | 89.9
CC(C)CC(NC(=O)C1CCCCC1)C(=O)NCc1ccccn1 (stereo not given) | 105.3
CC1CN(C(=O)c2cc3c(s2)CCC3)CC(C)O1 (stereo not given) | 101.9
O=C(O)C1CCC(c2ccc(-c3ccccc3)cc2)CC1 (stereo not given) | 99.7
COc1ccc(NC(=O)CNc2cccc3c2CCCC3)cc1 | 108.4
CCOC(=O)c1cc(-c2ccccc2)nnc1Cl | 99.3
CCc1ccc(NC(=O)C2CCCN(S(=O)(=O)N3CCOCC3)C2)cc1 (stereo not given) | 93.9
COC(=O)/C(=C/C=C/c1ccccc1)NC(=O)c1ccccc1 | 100.1
Cc1ccccc1-n1c(C)[n+](C)c2ccccc21 | 88.2
N#CC1=C(N)n2c(s/c(=C\c3ccco3)c2=O)=C(C#N)C1c1ccco1 (stereo not given) | 97.9
O=C(CSc1nnc(COc2ccccc2)o1)Nc1ccccc1 | 99.9
Cc1ccc(C(=O)NCc2ccc3[nH]c4c(c3c2)CCCC4)cc1C | 103.3
CCOC(=O)C1C(=O)C=C(Nc2ccc(C(F)(F)F)cc2)CC1c1ccccc1 (stereo not given) | 100.4
COc1cc(OC)nc(/N=C/N(C)C)n1 | 85.4
O=c1[nH]c2ccccc2n1CCOc1ccccc1 | 100.2
Cn1cc(C=Nc2ccccc2)c2ccccc21 | 91.2
Cc1oc2c(c1C(=O)NCCc1ccccc1)C(=O)c1ccccc1C2=O | 103.3
CC(=O)Nc1c(O)c2ccccc2oc1=O | 101.5
O=C(Oc1ccccc1C(=S)N1CCOCC1)c1ccccc1 | 100.3
COc1cccc2sc(=NC(=O)c3cccc4ccccc34)n(C)c12 | 101.1
Cc1cccc(-c2nc(C)c(CCNS(=O)(=O)c3ccc(F)c(C(F)(F)F)c3)s2)c1 | 99.7
O=C(Nc1ccnc(-c2cccnc2)n1)c1cccc(C(F)(F)F)c1 | 108.1
COc1ccc2c(ccn3cc4c(c(=O)n(C)c(=O)n4C)c23)c1 | 99.9
CC(C)(Oc1ccc(Br)cc1)C(=O)O | 100.2
CC1(C2CC2)NC(=O)NC1=O (stereo not given) | 100.2
CCCCn1c(SCC(=O)NCc2ccc(C)cc2)nc2ccc(N3CCOCC3)cc2c1=O | 90.1

# In another format: four of the compounds above
> CC1CN(C(=O)c2cc3c(s2)CCC3)CC(C)O1 (stereo not given)
  VACV E9 pol inh: 101.9
> O=C1c2ccccc2C(=O)N1CCN1CCCCC1
  VACV E9 pol inh: 100.0
> Cn1c(C(F)(F)F)nc2ccccc21
  VACV E9 pol inh: 90.1
> CC1CCc2nc(NN)nc(C(F)(F)F)c2C1 (stereo not given)
  VACV E9 pol inh: 100.1

# The list goes on.
mol | VACV E9 pol inh
C=CCN1C(=O)/C(=C/c2cc(C)n(-c3ccccn3)c2C)C(=O)NC1=S | 99.9
O=C1Nc2ccccc2S/C1=C\C(=O)N1CCCC1 | 103.6
Nc1nnc(-c2ccccc2)o1 | 99.8
O=C(Nc1csc2ccccc12)N1CCN(C(c2ccccc2)c2ccccc2)CC1 | 104.5
CCCNc1ncnc2c1c(-c1ccccc1)cn2-c1ccc(OC)cc1 | 99.9
COc1cc2cc(Oc3ccc4ccc(=O)oc4c3)c(=O)oc2cc1O | 94.5
COC(CN(C)S(=O)(=O)c1cccc2cccnc12)OC | 96.2
COC(=O)c1scc(C)c1NN1C(=O)C=C(C)C1=O | 113.7
O=C(NCSCc1cccc(C(F)(F)F)c1)Nc1ccc(F)c(Cl)c1 | 106.7
CCOc1ccc2nc(NC(=O)c3ccc(C#N)cc3)sc2c1 | 106.5
COc1cccc(C(=O)Nc2nnc(-c3ccc(Br)cc3)s2)c1 | 103.8
Cc1onc(-c2ccccc2)c1C(=O)NC1CCCC1 | 91.3
COC(=O)c1cn(NC(=O)c2cccc(OC)c2)c(=O)c2ccccc12 | 92.9
CCOC(=O)C(Cc1ccc(O)cc1)NC(C)=O (stereo not given) | 103.3
O=C1CC(c2ccccc2)CC(O)=C1C=NCCN1CCN(C2OC(=O)c3ccccc32)CC1 (stereo not given) | 99.7
CCOC(=O)c1c(C)n(-c2ccc(N(C)C)cc2)c2ccc(OC)cc12 | 102.6
CN1C(=O)/C(=c2\sc3nc(-c4ccccc4)nn3c2=O)c2ccccc21 | 100.0
COc1ccc(OCCn2cc(C=C3C(=O)N(C)C(=O)N(C)C3=O)c3ccccc32)cc1 | 99.6
Cc1ccn(CN2CCN(Cn3ccc(C)n3)C2=S)n1 | 100.2
O=C(CSc1ccc(-c2ccco2)nn1)N1CCCC1 | 106.6
O=S(=O)([N-]c1nc2ccccc2nc1-[n+]1ccccc1)c1ccccc1 | 100.3
O=C(Nc1ccc(S(=O)(=O)Nc2nccs2)cc1)C1CCCO1 (stereo not given) | 100.2
COC(=O)C1=C(O)c2ccccc2S(=O)(=O)N1C | 103.0
Cc1c(C(=O)NCCN(C)C)sc2nc(-c3ccc(F)cc3)cn12 | 97.4
CC(C)(Oc1ccc(Cl)cc1)C(=O)NCCn1ccc2ccccc21 | 99.3
CC(=O)Oc1ccccc1C(=O)Nc1ccc(C(N)=O)cc1 | 101.2
CCCN1C(=O)/C(=C/c2cc(C)n(-c3ccc(Cl)cc3)c2C)NC1=S | 100.5
COc1ccc(/C(O)=C2/C(=O)C(=O)N(CCCO)C2c2cccc(Br)c2)cc1F (stereo not given) | 109.4
O=C(Cc1ccccc1)Nc1ccc2c(c1)C(=O)OC2 | 99.2
O=C(c1ccccc1)C1(c2ccccc2)OCCCCO1 | 100.7
COc1ccc(NC(=O)Nc2ccc(OC)c(OC)c2)cc1OC | 99.6
COC(=O)c1cc(S(=O)(=O)N(C)C2CCCCC2)oc1C | 103.4
COC(=O)Nc1cn(Cc2ccccn2)c(=O)c2ccccc12 | 111.6
CC(=O)NCc1nc2ccccc2n1C(C)C | 99.0
Cc1ccc(SCC(=O)O)cc1 | 101.7
Nc1ccc2c(c1)C/C(=C\c1ccco1)C2=O | 98.2
O=C(NCC1COc2ccccc2O1)Nc1csc2ccccc12 (stereo not given) | 86.1
COc1cc2c(cc1OC)C(=O)CC(C)(C)O2 | 104.9
O=C(O)c1[nH]n(-c2ccccc2)c(=O)c1/C=C1\C=Nc2ccccc21 | 98.8
COc1cccc2c1CCN(C)C2=O | 100.8
CCCN(CCC)C(=O)Cn1ncc2c(=O)oc3ccc(C)cc3c21 | 103.8
O=C(CSc1ccccc1)Nc1ccc(F)cc1 | 98.4
COC(=O)C1=C(C)NC(SCC(=O)C23CC4CC(CC(C4)C2)C3)=C(C#N)C1c1cccs1 (stereo not given) | 100.8
CC(=O)Nc1ccc(-c2cn3ccsc3n2)cc1 | 97.9
Cc1nc2cc(CC(=O)O)ccc2o1 | 107.0
CCC(=O)N/C(N)=N\c1nc(C)c2ccccc2n1 | 99.3
CCOC(=O)c1c(C)n(C)c2ccc(OCC)cc12 | 98.2
CNc1nc(Nc2ccc(OC(F)(F)F)cc2)nc(OCC(F)(F)F)n1 | 98.6
COc1ccc(-c2cc(C(=O)N3CCN(C)CC3)no2)cc1 | 100.8
Cn1c(SCc2nc3ccccc3s2)nnc1-c1cccs1 | 97.1
O=C(O)CC1(O)c2ccccc2C(=O)N1Cc1ccccc1 (stereo not given) | 99.2
O=C(NC1CCN(Cc2ccccc2)CC1)c1ccc(-c2cccs2)s1 | 101.1
CCOC(=O)C1CCC(CNCc2ccccc2C)CC1 (stereo not given) | 103.5
O=C(CSc1ccccn1)NC(=O)c1ccccc1 | 100.2
COc1ccc(C(C#N)N2N=C(C)CC2c2ccccc2)cc1 (stereo not given) | 100.2
COc1cc(OC)cc(C(=O)Nc2cc(C)nn2-c2ccccc2)c1 | 99.7

# Bioassay records as filed in PubChem BioAssay.
